UCH37 inh = inhibitors of human deubiquitinating enzyme UCH37; inhibition, % (no concentration beside the values); purified proteasome/UCH37, Ub-AMC cleavage fluorescence; 330,000 compounds, 0.33% hits; AID 588478;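 active means mean of two replicates above 20%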;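 further: 0% = compound-free wells with enzyme and 100% = wells lacking proteasome; stock transfer was 100 nL into about 20 µL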
Target sequence (Q9Y5K5 whole entry, looked up): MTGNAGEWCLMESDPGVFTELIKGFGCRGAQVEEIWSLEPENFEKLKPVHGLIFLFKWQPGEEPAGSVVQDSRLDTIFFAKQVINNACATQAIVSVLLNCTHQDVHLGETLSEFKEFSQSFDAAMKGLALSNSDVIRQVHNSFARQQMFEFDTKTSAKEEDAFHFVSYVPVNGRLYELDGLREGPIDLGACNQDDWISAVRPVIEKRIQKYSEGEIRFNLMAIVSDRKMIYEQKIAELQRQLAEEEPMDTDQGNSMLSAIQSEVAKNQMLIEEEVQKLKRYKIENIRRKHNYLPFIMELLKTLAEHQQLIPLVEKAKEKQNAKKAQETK
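Material: Human UCH37 enzyme supplied as purified proteasome complex | Schedule: 30 min compound-proteasome preincubation then 25 min substrate reaction, room temperature | Detection: AMC fluorescence from Ub-AMC cleavage, excitation 355 nm, emission 460 nm | Benchmarks: Wells without proteasome as full block, compound-free enzyme plus substrate as uninhibited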
HNF4A DNA FP = change in binding of human HNF4 alpha to DNA; P41235; AID 1224865; activity change, % at 10 µM; 360,000 compounds, 0.3% hits; HNF4a-FITC DNA binding, fluorescence polarization, 1 h; in the data active means activity change above about 30%, passing the limit was not always enough;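 further: controls were the assay level and a saturating level of protein; the project sought stronger binding though the title names inhibitors; some compounds called inactive have numbers as strong as hits; positive values seem to mean higher polarization but the record does not say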
Bfl-1 A1 inh = inhibitors of the anti-apoptotic protein A1, read as caspase activation | MEF A1-2A-BIM cells, Caspase-Glo 3/7 luminescence, 3 h; percent of clofoctol response, vehicle zero | caspase activation, % (test concentration not listed) | 330,000 compounds, 0.066% hits | AID 2462;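 active means over half of replicate activation scores above 10%, or exactly half above 10 with the replicate mean above 10; inconclusive means replicate mean below 10 yet half the replicates above 10; inactive means over half of replicates below 10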;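 further: wells of about 30 µL received 50 nL stock; many hits fall short of the cut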
LANA-H2B inh = blocks KSHV LANA binding to histone H2A/H2B; Q9QR71; cell-free LANA-H2A/H2B peptide, fluorescence polarization; inhibition, % (no concentration beside the values); 320,000 compounds, 0.6% hits; AID 2629; in the data active means inhibition mostly above about 10%, no sharp cut-off; inactive means mostly below about 6.7%;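 further: stock transfer was 7.5 nL into about 10 µL; 0% = median of vehicle wells and 100% = median of positive control wells; one replicate is shown; the record names a cut of 25% in any replicate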
Vif TR-FRET = HIV-1 Vif–A3G interaction blockers – biochemical, TR-FRET, GST-Vif 1-94, biotin-A3G peptide, dose response retest, primary screen (AID 1117319) | 260,000 compounds, 0.57% hits | one-dose inhibition, %; IC50 in µM for titrated hits | TR-FRET GST-Vif / biotin-A3G peptide binding; higher % means a stronger effect; test concentration not given here; strong numbers were not always called active;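 active means above the screen mean plus three standard deviations and confirmed in dose response; inconclusive means results disagree or hit not tested in dose response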;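 further: Vif residues 1-94 fused to GST binding biotinylated APOBEC3G peptide 110-148; 0% = full assay without inhibitor and 100% = GST in place of GST-Vif; retest series ran down from 100 µM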
B2AR ag = agonists of human beta-2 adrenergic receptor inducing internalization; P07550; Am2.2-beta2AR cells, FAP receptor internalization, flow cytometry; reference of the scale not given here; response, % (concentration not given with the values); 340,000 compounds, 0.43% hits;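 active means response above a set limit, near 3 SD of response in nonfluorescent compounds, cut at about 42% in these data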;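 further: stock transfer was 100 nL into about 11 µL; a reference agonist was the positive control; negative values mostly stem from fluorescent compounds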
Target sequence (P07550 whole entry, looked up): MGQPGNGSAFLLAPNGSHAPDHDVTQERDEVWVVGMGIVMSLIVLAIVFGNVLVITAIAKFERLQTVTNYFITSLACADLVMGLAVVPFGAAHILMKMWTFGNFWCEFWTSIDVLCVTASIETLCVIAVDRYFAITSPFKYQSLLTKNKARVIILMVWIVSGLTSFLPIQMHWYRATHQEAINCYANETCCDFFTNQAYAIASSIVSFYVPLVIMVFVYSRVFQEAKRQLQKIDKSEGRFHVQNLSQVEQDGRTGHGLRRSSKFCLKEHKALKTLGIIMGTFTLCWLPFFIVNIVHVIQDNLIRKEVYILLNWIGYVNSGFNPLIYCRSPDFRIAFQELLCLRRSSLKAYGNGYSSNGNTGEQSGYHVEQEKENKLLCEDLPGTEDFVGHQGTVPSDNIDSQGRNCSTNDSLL
Ecoli growth = inhibitors of Escherichia coli growth. 330,000 compounds, 0.21% hits. OD600 absorbance (no concentration beside the values). AID 1053175. OD600, 23 h; hits give low values;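 active means OD600 absorbance below the run mean of sample wells minus 3.6 SD, in any replicate, cut at about 0.56 in these data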;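 further: stock transfer was 300 nL into about 60 µL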
Active calls of the source: *; u = inconclusive; x = no result given; & = joins results of further samples.

SMILES	UCH37 inh	HNF4A DNA FP	Bfl-1 A1 inh	LANA-H2B inh	Vif TR-FRET	B2AR ag	Ecoli growth
COCCn1c(N)c(N(Cc2ccccc2)C(=O)COc2ccc(F)cc2Cl)c(=O)[nH]c1=O	-0.4	-1.4	0.7	0.2	0%	-2	0.67
COc1ccc(Nc2cc(C(=O)NCc3cccnc3)c3ccccc3n2)c(OC)c1	3.6	x	-0.7	2.9	x	x	0.73
c1csc(-c2noc(CN3CCN4CCCC4C3)n2)c1 (stereo unspecified)	1.4	2.2	0.8	-5.2	8%	-4	0.69
O=C(CCC(=O)N(CC(=O)NC1CCCC1)c1ccc(F)cc1)Nc1nccs1	2.0	3.4	0.1	0.6	x	-1	0.65
COc1ccc(C(=O)Nc2ccc(Nc3ccccc3)cc2)cc1OC	1.7	-1.9	-3.7	-15	x	12	0.67
CCOC(=O)c1sc(Nc2ccccc2Cl)nc1C	1.9	-1.1	-3.1	-1.8	20%	7	0.67
Cc1cc(C)c(NC(=O)/C=C\C(=O)O)c([N+](=O)[O-])c1	0.9	-1.4	0.9	2.1	2%	0	x
Cn1cnc(C(=O)NCc2ccccc2)c1C(=O)NCc1ccccc1	3.2	4.2	0.3	-4.1	x	-6	0.71
CC(C)C(NS(=O)(=O)c1cccs1)C(=O)NCCCN1CCCCCC1 (stereo unspecified)	1.4	4.2	0.1	8.5	-12%	-11	0.63
COc1ccc(S(=O)(=O)N(C)C[C@H]2Oc3c(NC(=O)Nc4ccccc4)cccc3C(=O)N([C@H](C)CO)C[C@@H]2C)cc1	x	-0.4	x	x	4%	-4	x
COc1ccc(CCNC(=O)C2CCN(C(=O)c3cccs3)CC2)cc1	1.2	-0.8	2.2	0.8	1%	1	0.73
CC(=O)Nc1ccc2c(c1)nc(CCN1CCC(C)CC1)n2C	0.2	-0.3	-0.1	4.4	4%	-3	0.7
COCCCN(Cc1ccco1)C(=O)CSc1nc2ncccc2[nH]1	1.9	5.7	-0.1	2.7	x	-10	0.71
Cc1ccc(CNC(=O)C2CCN(S(=O)(=O)N3CCCC3)CC2)cc1	2.5	-1.2	0.6	-1.6	-4%	-2	0.7
COc1ccc(-c2nnnn2-c2ccccc2OC)cc1	1.8	2.0	-0.4	-2.9	1%	-3	0.69
COc1cc2c(cc1OC)C(CCc1ccccc1)=NCC2	x	-1.2	1.4	2.2	0%	1	x
COc1cccc(C2c3[nH]c4ccccc4c3C[C@H]3C(=O)N(c4ccccc4C(=O)N4CCC[C@H]4C(=O)O)C(=O)N23)c1 (stereo partly specified)	1.3	-0.4	0.4	-1.3	x	0	0.76
CCOc1ncccc1C(=O)OCC(=O)Nc1ccc(S(=O)(=O)N2CCOCC2)cc1	0.5	0.8	0.4	1.9	2%	-3	0.69
Cc1cccc(NC(=O)Nc2ccc(F)cc2)n1	3.0	-3.7	-1.2	-4.6	-3%	5	0.68
N#CCC(N)=C(C#N)C#N	-1.0	1.6	-0.1	-16	u	-1	0.64

Looked up above:
Result for COc1ccc(C(=O)Nc2ccc(Nc3ccccc3)cc2)cc1OC in B2AR ag: 12
Result for COc1ccc(CCNC(=O)C2CCN(C(=O)c3cccs3)CC2)cc1 in LANA-H2B inh: 0.8

(cont.)
SMILES	UCH37 inh	HNF4A DNA FP	Bfl-1 A1 inh	LANA-H2B inh	Vif TR-FRET	B2AR ag	Ecoli growth
CCN(C[C@H]1N[C@@](Cc2ccccc2)(C(=O)OC)[C@H]2C(=O)N(Cc3ccccc3)C(=O)[C@@H]12)C(=O)Nc1ccc(C)cc1	0.4	-1.9	x	x	1%	6	0.71
COc1ccccc1NC(=O)CSc1nc(=O)n2cc(C)ccc2n1	5.9	-1.9	-0.3	-2.7	-1%	4	0.64
CN(C)CCNC(=O)c1onc(CSc2ccc(F)c(F)c2)c1C(=O)NCCN(C)C	x	-1.6	0.6	1.7	8%	8	x
CC(C)(C)n1nc2c(c1NC(=O)Cc1cccc3ccccc13)CS(=O)C2 (stereo unspecified)	1.2	3.9	0.4	-0.4	3%	0	0.73
Cc1ccc(N2CCN(S(=O)(=O)c3ccc4c(c3)oc(=O)n4C)CC2C)cc1 (stereo unspecified)	4.1	1.6	-0.1	-0.1	-2%	-8	0.7
O=c1[nH]c(-c2ccccc2Cl)nc2c1sc(=S)n2-c1ccccc1	8.3	-0.8	x	x	2%	1	0.67
O=C(NCC(=O)N1CCN(c2ccccc2F)CC1)c1ccc(Br)o1	3.4	-1.5	0.6	-2.4	-3%	-2	0.66
O=C(O)c1ccc2[nH]c3c(c2c1)CCCC3	21*	-3.4	-0.8	-3.4	x	-1	0.68
O=C(NNC(=O)c1cc2cc3ccccc3nc2s1)c1cccc(C(F)(F)F)c1	-11	-2.5	-0.7	-1.6	0%	-7	0.74
COc1ccccc1NC(=O)C1CCN(C(=O)c2ccco2)CC1	3.0	-0.3	1.8	-0.6	x	-3	0.65
CCN1CCN(c2nnc(-c3ccccc3)c3ccccc23)CC1	0.8	-3.9	-0.3	0.6	-18%	-9	0.67
COc1ccc(CC(=O)NNC(=O)COc2ccc(Br)cc2C)cc1OC	2.6	4.6	0.3	-2.6	-11%	-1	0.68
Cc1nn(-c2ccccc2)c(Oc2ccccc2)c1C=O	3.8	-0.5	-0.9	6.6	-3%	0	0.72
O=C(NNc1ccc([N+](=O)[O-])cc1)C1CC1c1ccccc1 (stereo unspecified)	6.4	6.1	-0.2	3.2	-3%	3	0.67
Cc1cc(C#N)c(C)n1-c1cc(C(F)(F)F)ccc1N1CCOCC1	-0.5	2.3	-0.4	2.9	u	2	0.67
CS/C(N)=N/S(=O)(=O)c1ccc(NC(C)=O)cc1	3.6	6.1	-0.5	6.6	-1%	-6	0.66
Cc1cc(-c2nnc(SCC(=O)Nc3c(C)cccc3C)n2N)n[nH]1	0.1	-1.8	-0.3	1.2	x	8	0.65
O=C(CN1CCN(c2ccccc2F)CC1)Nc1nnc(C(F)(F)F)s1	4.4	-0.9	-0.1	0.8	32%	2	0.7
O=C(NNC(=O)c1ccc(Br)s1)c1csc(N2CCOCC2)n1	11	-1.8	-0.2	-2.4	5%	5	0.67
CCOC(=O)N/N=C/c1ccc(F)cc1	x	3.6	-0.8	1.0	2%	-5	x
COc1ccccc1C(=O)N/C(=C/c1ccc(Br)cc1)C(=O)NCCCn1ccnc1	2.3	-0.9	0.3	1.0	x	5	0.68
CCOC(=O)c1c(C)[nH]c(N=Nc2cccc(C)c2)c1C	6.7	0.0	-0.6	0.4	-6%	2	0.62
CCCCn1c(N)c(N(CCOC)C(=O)c2cccc(-n3cnnn3)c2)c(=O)[nH]c1=O	2.4	2.4	0.6	0.1	4%	-10	0.68
COc1ccc(-c2nc(CS(=O)CC(=O)NC3CCCC(C)C3C)c(C)o2)cc1OC (stereo unspecified)	3.5	0.6	0.2	-5.9	-6%	-14	0.67
Cc1ccc(CSCCNC(=O)CN2C(=O)c3ccccc3S2(=O)=O)cc1	2.4	1.4	0.7	-1.0	7%	2	0.68
C=CCC(=O)NC1CC(C)(C)Cc2c1cnn2-c1ccccc1C (stereo unspecified)	0.8	0.4	-0.5	1.5	x	1	0.67
O=[N+]([O-])c1ccc2nc(SCc3cn4ccccc4n3)[nH]c2c1	1.9	-1.4	0.0	5.2	-12%	-12	0.72
COC(=O)CN1C(=O)C2(C(C#N)=C(N)Oc3cc(C)oc(=O)c32)c2ccccc21 (stereo unspecified)	1.9	0.2	0.3	1.8	-2%	8	0.74
CCOc1ccc(C(=O)Nc2cc(-c3nc4ccccc4[nH]3)ccc2C)cc1[N+](=O)[O-]	3.4	-0.5	-0.8	-4.1	5%	-9	0.72
O=C(CCN1CCc2ccccc2C(c2ccccc2)C1)c1ccc2c(c1)OCCO2 (stereo unspecified)	-0.2	-1.3	0.3	-6.7	0%&12%	3	0.73
Cc1ccc2nc(NS(=O)(=O)c3cn(C)nc3C)sc2c1	1.2	0.2	0.6	-7.8	x	1	0.66
Cc1cc(=O)n(C)c(=O)n1CCCCCCOc1cccc([N+](=O)[O-])c1	5.1	0.1	0.0	x	4%	1	0.56
CC(C)c1cc(C(=O)Nc2cc(Cl)ccc2O)no1	1.9	7.2	-2.8	13*	4%	6	0.66
COc1ccc(Cl)cc1C(=O)Nc1cc(=O)n(C)c(=O)n1C	4.0	-0.3	0.5	-0.9	x	5	0.72
COc1nc(NC2CCCCC2)nc(N2CCCCCC2)n1	2.7	3.0	-0.3	3.4	-3%	-7	0.7
COc1cccc(C=CC(=O)C=CC=Cc2ccccc2)c1	6.6	2.8	x	x	-8%	3	0.7
CCn1c(CN2CCN(C(c3ccccc3)c3ccccc3)CC2)nc2c1c(=O)n(C)c(=O)n2C	0.5	5.0	-0.4	1.2	x	10	0.69
Cc1ccc(OCC(=O)N/N=C2/SCC(=O)N2Cc2ccccc2)cc1	x	0.3	-0.3	-0.9	x	-11	x
O=C(CSc1nc(O)c(Cc2ccccc2F)c(=O)[nH]1)N1CCCCCC1	3.5	3.3	0.6	0.2	-1%	-3	0.65
CC1(C)C2CCC1(C)C(OC(=O)CCn1ccnc1)C2 (stereo unspecified)	1.4	-2.2	0.7	0.2	17%	0	0.72
O=C(Cc1ccccc1)NC(NCCc1ccccc1)C(Cl)(Cl)Cl (stereo unspecified)	-2.3	-2.1	0.4	-4.2	15%	5	0.74
O=c1c2ccccc2nc(COc2ccccc2)n1/N=C/c1ccco1	x	1.2	-0.8	-0.6	5%	0	x
CC1=C(C(=O)Nc2ccc(Cl)cc2)C(c2ccncc2)C(C#N)=C(SCC(N)=O)N1 (stereo unspecified)	x	0.6	1.6	0.3	32%	-9	x
CCOc1ccc(CNC(=O)C2CCN(S(=O)(=O)CC)CC2)cc1OC	2.0	3.1	-0.2	-1.2	20%	-2	0.7
CCC(=O)NCCc1c[nH]c2ccccc12	0.7	-1.5	-0.2	-4.0	6%	2	0.7
COc1ccc(CCNC(=O)C(NS(=O)(=O)c2ccc3c(c2)CCN3C(C)=O)C(C)C)cc1OC (stereo unspecified)	0.2	x	-0.6	-0.3	u	x	0.64
CNc1oc(C)nc1S(=O)(=O)c1ccc(C)cc1	1.8	5.3	0.4	0.1	0%	12	0.71
CC(C)NC(=O)c1cc(-c2ccco2)nn1-c1ccc(Cl)cc1	1.7	-5.8	-0.3	0.5	14µM*	6	0.69
COc1cc(OC)cc(-c2c(C#Cc3ccsc3)c3cc(-c4ccc(C(N)=O)cc4)ccc3n2C)c1	-12	2.7	0.6	0.4	x	-5	0.71

In another format: entries from further up
Order of values: UCH37 inh | HNF4A DNA FP | Bfl-1 A1 inh | LANA-H2B inh | Vif TR-FRET | B2AR ag | Ecoli growth
> COc1ccc(CCNC(=O)C(NS(=O)(=O)c2ccc3c(c2)CCN3C(C)=O)C(C)C)cc1OC (stereo unspecified)
→ 0.2 | x | -0.6 | -0.3 | u | x | 0.64
> CNc1oc(C)nc1S(=O)(=O)c1ccc(C)cc1
→ 1.8 | 5.3 | 0.4 | 0.1 | 0% | 12 | 0.71

Sorted by length of the SMILES (rising): part of the list above.
SMILES	UCH37 inh	HNF4A DNA FP	Bfl-1 A1 inh	LANA-H2B inh	Vif TR-FRET	B2AR ag	Ecoli growth
CNc1oc(C)nc1S(=O)(=O)c1ccc(C)cc1	1.8	5.3	0.4	0.1	0%	12	0.71
O=C(Cc1ccccc1)NC(NCCc1ccccc1)C(Cl)(Cl)Cl (stereo unspecified)	-2.3	-2.1	0.4	-4.2	15%	5	0.74
CC(C)NC(=O)c1cc(-c2ccco2)nn1-c1ccc(Cl)cc1	1.7	-5.8	-0.3	0.5	14µM*	6	0.69
COc1ccc(CCNC(=O)C(NS(=O)(=O)c2ccc3c(c2)CCN3C(C)=O)C(C)C)cc1OC (stereo unspecified)	0.2	x	-0.6	-0.3	u	x	0.64

High-throughput results (PubChem)
